Rango dissoc inh – inhibitors of RanGTP-induced Rango-importin beta complex dissociation. actives 0.071% (n = 340,000). AID 540253. Potency, µM (highest dose often 46.1 µM), without a hit: top-dose activity change, negative = inhibition. O95149+P62826. Biochemical FRET Rango-importin beta, RanGTP-induced dissociation; active means falling FRET ratio curve, often poorly fitted, with flat reads before Ran was added; inconclusive means other falling curves, or compound fluorescence or quenching; inactive means flat or rising ratio curve;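 also: potency is read from the fitted curve at half-maximal effect; % of control where 0% means no effect; nearly all actives have a fitted effect of over 45% in size; -100% = wells without RanGTP and RCC1; the record marks most hits as doubtful in a second field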
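FRET read at 45 min, room temperature: inhibitors block the CFP/YFP signal rise when RanGTP (0.6 uM Ran, 2 mM GTP, 0.2 uM RCC1) frees Rango (0.1 uM) from importin beta (0.25 uM). Pre-read after 5 min compound exposure flags interference.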
miR-21 reporter – miR-21 reporter, rising signal | 340,000 tested, under 10 active | AID 2288 | HeLa miR-21 FLuc reporter, luciferase, 48 h | Potency, µM (top dose mostly 38.3 µM), for the others: at the highest dose reporter change, positive = more light; active = well fitted rising curve with a large enough effect; inconclusive = small, poorly fitted or top-dose-only effect; inactive = no such curve, though single readings can be large or run the other way;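 also: % of control where 0% means no effect; miR-21 action dims this reporter so a rising signal means less miR-21 action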
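Using DMEM plus 10% FBS, HeLa miR-21-FLuc cells are incubated with test compounds (final up to about 40uM) for 48 hours; firefly luciferase signal is then imaged following reagent-mediated lysis.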
Rango-impB inh – Rango-importin beta binding inhibition. Q14974. Rango CFP/YFP FRET sensor + importin beta, 45 min. Potency, µM (highest dose often 92.2 µM), for the others: top-dose inhibition of complex formation. actives 0.031% (n = 340,000); active = rising FRET ratio curve, often small or poorly fitted; inconclusive = mostly compound fluorescence or quenching in the first reads; inactive = flat curves in all reads;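 also: potency is read from the fitted curve at half-maximal effect; 0% = DMSO wells and 100% = buffer wells lacking importin beta; nearly all actives have a fitted effect of over 15% in size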
Target sequence (Q14974 whole entry, looked up): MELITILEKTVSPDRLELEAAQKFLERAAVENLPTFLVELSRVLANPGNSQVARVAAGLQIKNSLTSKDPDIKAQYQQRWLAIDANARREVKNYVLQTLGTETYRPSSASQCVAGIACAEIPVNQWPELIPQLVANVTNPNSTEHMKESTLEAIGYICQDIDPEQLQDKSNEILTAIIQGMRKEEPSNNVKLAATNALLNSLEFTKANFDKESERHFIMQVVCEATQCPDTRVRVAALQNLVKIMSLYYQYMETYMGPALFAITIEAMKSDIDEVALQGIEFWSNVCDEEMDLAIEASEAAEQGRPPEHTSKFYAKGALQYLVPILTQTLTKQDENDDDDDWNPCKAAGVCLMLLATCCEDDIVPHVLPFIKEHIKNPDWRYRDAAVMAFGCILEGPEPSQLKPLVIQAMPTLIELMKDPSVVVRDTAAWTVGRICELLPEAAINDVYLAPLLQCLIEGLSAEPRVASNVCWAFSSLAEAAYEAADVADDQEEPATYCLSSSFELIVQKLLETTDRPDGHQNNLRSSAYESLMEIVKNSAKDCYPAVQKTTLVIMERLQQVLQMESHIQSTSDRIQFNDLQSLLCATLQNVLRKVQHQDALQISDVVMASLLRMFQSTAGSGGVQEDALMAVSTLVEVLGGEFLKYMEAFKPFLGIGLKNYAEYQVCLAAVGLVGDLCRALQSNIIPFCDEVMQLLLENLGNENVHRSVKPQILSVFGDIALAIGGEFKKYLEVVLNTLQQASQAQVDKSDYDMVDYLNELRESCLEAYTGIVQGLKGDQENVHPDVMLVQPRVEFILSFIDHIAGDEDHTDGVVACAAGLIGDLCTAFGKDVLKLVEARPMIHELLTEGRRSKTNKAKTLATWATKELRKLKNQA
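FRET biosensor Rango (snurportin 1 IBB between N-terminal EYFP and C-terminal Cerulean), 50 nM in PBS/1 mM DTT/0.02% Tween-20/0.1% BSA, preincubated 5 min RT with compound; 0.125 microM importin beta added, 45 min RT, CFP/YFP FRET ratio read.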
GLA inh pH 4.5 – alpha-galactosidase A (human) inhibition, pH 4.5; P06280; purified enzyme, 4-MU-alpha-Gal fluorescence, pH 4.5; activity change, negative = inhibition, % at 105 µM; 230,000 tested, under 10 active; AID 1467; inconclusive = small, poorly fitted or top-dose-only inhibition, or a rising curve; inactive = flat fitted curve, though single readings scatter; no compound was filed as active;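 also: 0% = full activity with enzyme and -100% = basal without enzyme; dose as in the result columns while the protocol names 77 µM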
The depositor's hits bear a star; u = inconclusive; x = not tested or not shown; & = joins results of further samples.

Rango dissoc inh	miR-21 reporter	Rango-impB inh	GLA inh pH 4.5	canonical_smiles
-5.2%	-5.3%	3.8%	5.9	COC(=O)c1cn(CC(=O)N2CCCCC2C)c2ccccc12 (stereo unspecified)
12.9%	x	0.0%	x	CC(Nc1nc(-c2ccc(F)cc2)cs1)c1nc2cc(C(F)(F)F)ccc2n1CCOCCO (stereo unspecified)
-4.7%	-3.0%	-2.7%	x	COCC(=O)N1CCC(Oc2ccc(C(=O)NC(C)c3nccs3)cc2)CC1 (stereo unspecified)
8.9%	23.1%	-1.1%	x	COc1ccc(C(=O)Nc2ccccc2C(=O)Nc2ccccc2C(=O)O)cc1
-11.6%	-0.4%	0.0%	x	Nc1nc(C(c2ccccc2)c2ccccc2)cs1
3.9%	-9.6%	-1.3%	x	CCCCCN1CC(=O)N2Cc3[nH]c4ccccc4c3C[C@H]2C1=O
22.8%	x	-4.3%	x	Cc1ccc2[nH]c(O)c(N=Nc3ccccc3[N+](=O)[O-])c2c1
9.8%	-0.7%	u	1.2	O=C(Nc1ccccc1C(=O)N1CCOCC1)C1CC(=O)N(C2CCCC2)C1 (stereo unspecified)
-3.0%	4.8%	0.5%	2.2	CCC1CCCCN1C(=O)CSc1nc(N)cc(N)n1 (stereo unspecified)
-9.9%	-3.9%	-0.3%	-3.0	O=C(NNC(=O)c1cccnc1)Nc1cccc2ccccc12
1.7%	1.1%	0.3%	x	CC(=O)c1cc2c(cc1NS(=O)(=O)c1cccc(C(=O)O)c1)OCO2
17.1%	-7.7%	-0.7%	x	COc1ccc(C(=O)N2CCN(Cc3ccccn3)CC2)cc1
0.7%	-1.9%	-0.6%	x	Cc1cc2c(SCC(=O)NC3CCCCC3)ncnc2s1
-6.3%	1.7%&-3.3%	0.3%	x	CC(C)N(Cc1ccccc1)C(=O)CN1C(=O)COc2ccc(S(=O)(=O)NC3CCCC3)cc21
42.8%	-8.1%	u	x	Cc1cc(C(=O)Nc2ccc(F)cc2F)on1
-5.2%	1.5%	0.7%	u	CCOc1cc(NC(=S)NCC2CCCO2)c(OCC)cc1NC(=O)c1ccccc1C (stereo unspecified)
-1.1%	-36.6%	-2.2%	x	Cc1ccc(C)c(NC(=O)CSc2nccn2Cc2ccco2)c1
-2.0%	1.3%	-2.5%	0.0	COc1ccc(/C=C2/SC(=S)N(n3c(C)ccc3C)C2=O)cc1
31.5%	-29.7%	2.5%	x	O=C(OCc1ccc(-c2ccccc2)cc1)c1cccc(O)c1
9.3%	11.9%	-0.2%	-7.1	COc1ccc(C(=O)C2CCCN(Cc3cccn3-c3nccs3)C2)cc1OC (stereo unspecified)
-1.2%	x	-5.3%	x	Cc1oc(-c2ccccc2)nc1C(=O)OCC(=O)NCc1ccc(Cl)cc1
-21.8%	0.3%	-0.3%	-4.8	Cc1nn(C)cc1C(C(=O)NC1CCCCC1)N(Cc1ccccc1Cl)C(=O)c1cnccn1 (stereo unspecified)
15.1%	13.5%	-1.3%	-2.5	Cc1nn(C)c(C(=O)NCc2ccc(Cl)cc2)c1Cl
2.4%	1.0%	-0.4%	-10.1	Cc1ccc(CS(=O)(=O)c2nc3c(c(N(C)C)n2)CCCC3)cc1
7.0%	3.8%	0.2%	1.6	COc1ccc(N2CCN(C(C)C(=O)N3CC(C)OC(C)C3)CC2)cc1 (stereo unspecified)
-3.4%	5.7%	0.2%	x	COc1ccc(C2c3ccc4ccccc4c3Oc3ncn(CCO)c(=N)c32)cc1 (stereo unspecified)
-3.6%	-0.3%	u	x	Cc1c(C)c2cc(Cl)c(OCC(=O)NC3CC(C)(C)NC(C)(C)C3)cc2oc1=O
-1.8%	-35.4%	5.3%	-3.3	CCOC(=O)c1ccc(NC(=S)Nc2ccccn2)cc1
0.1%	-3.8%	-3.8%	7.1	Cc1c(C(=O)N2CCN(c3ccccn3)CC2)sc2ncnc(N3CCOCC3)c12
16.9%	x	-0.2%	x	CN(CC(=O)N(C)CC(=O)Nc1c(Cl)cccc1Cl)Cc1ccccc1F
0.2%	0.9%	-1.3%	-12.6	Cc1cc(/N=C/N(C)C)on1
1.7%	-4.7%	7.2%	-0.3	CCOc1cccc(-c2nnc(SCC(=O)Nc3ccc(OC)c(OC)c3)n2N)c1
-5.3%	-6.3%	2.5%	-10.0	COCCOC(=O)C1=C(C)N=c2s/c(=C\c3cccs3)c(=O)n2C1c1cccs1 (stereo unspecified)
0.5%	x	-10.6%	x	C[C@H](NC(=O)c1ccc(C(C)(C)C)cc1)C(=O)N1CCN(C/C=C/c2ccccc2)CC1
-4.0%	4.0%	1.2%	-16.8	FC(F)(F)c1cc(Oc2ccccc2)ncc1-c1nnc(-c2ccccc2Cl)o1
-11.0%	-9.1%	-2.2%	1.8	CN(C)C(/C=C/Nc1ccc(F)cc1F)=C(C#N)C#N
-0.8%	-3.4%	-1.9%	-4.5	Cc1cc(C)cc(NC(=O)CN2CCC(NC(=O)Cc3ccccc3)CC2)c1
-3.6%	-32.4%	0.0%	-20.6	O=c1c(-c2ccc(O)cc2)coc2cc(OC3OC(CO)C(O)C(O)C3O)ccc12 (stereo unspecified)
6.3%	0.1%	5.4%	-2.8	CNC(=O)c1cc2cc(OC)ccc2n1CCN(Cc1ccccc1)Cc1ccccc1
0.7%	0.9%	4.8%	x	COc1ccc(CCN2C(=O)N[C@@H](CCC(=O)O)C2=O)cc1
14.4%	14.0%	-2.1%	x	COc1ccc(CNC(=O)CN(Cc2ccc(Cl)cc2)C(=O)c2csnn2)cc1
1.8%	-0.5%	0.3%	-3.0	CCc1ccc(NC(=O)N(CCN2CCOCC2)C2CCN(C(C)=O)CC2)cc1
6.2%	1.5%	1.2%	x	COc1ccc(OC)c(NC(=O)CNC(=O)Cn2cnc3sc(C)cc3c2=O)c1
0.9%	5.4%	0.0%	8.7	Clc1cccc(Cl)c1CO/N=C/c1c(-c2ccccc2)nc2n1CCS2
-6.7%	-4.0%	2.1%	-6.6	O=C(Cn1c(CC(=O)N2CCCC2)nc2ccccc21)NCc1ccccc1
0.9%	22.6%	-0.1%	-8.7	Cc1cccc2[nH]c3c(N4CC=C(c5ccc(F)cc5)CC4)ncnc3c12
9.3%	-2.7%	u	-1.3	Cc1ccc(C(=O)Nc2nc(-c3ccc([N+](=O)[O-])cc3)cs2)o1
-14.5%	x	5.3%	x	CS(=O)(=O)c1ccc(C(=O)OCC(=O)NNC(=O)COc2ccc(Cl)cc2)cc1
5.4%	0.4%	2.9%	-5.6	O=C(CSc1nnc(CNc2ccc(F)cc2)n1Cc1ccccc1)NCc1ccco1
-7.6%	x	u	x	CC(=O)c1ccc(OCC(=O)N(CCC2=CCCCC2)c2c(N)n(Cc3ccccc3)c(=O)[nH]c2=O)cc1
2.0%	-38.3%	0.8%	6.6	CCc1nnc(NC(=O)CSc2ncc(-c3ccccc3)n2C)s1
2.7%	-1.1%	-1.3%	x	CC(=O)Nc1ccc(NS(=O)(=O)c2ccc3c(c2)n(C)c(=O)n3C)cc1
13.2%	2.9%	-0.8%	x	COc1ccc(C2/C(=C(/O)c3ccc4c(c3)CC(C)O4)C(=O)C(=O)N2CCCn2ccnc2)cc1 (stereo unspecified)
2.0%	0.1%	-1.5%	-16.1	Brc1ccc(-c2nc(N/N=C/c3cccnc3)c3ccccc3n2)cc1
-10.2%	-0.6%	0.8%	x	COCCCNc1nc2c(c(=O)n(Cc3ccc(OC)cc3)c(=O)n2C)n1C
-7.3%	-4.4%	4.4%	5.2	CC(OC(=O)c1ccc([N+](=O)[O-])s1)C(=O)Nc1ncc(Cl)cc1Cl (stereo unspecified)
2.3%	-0.5%	-0.9%	x	O=C(CCN1C(=O)COc2ccccc21)NCCCN1CCCC1
12.5%	-3.4%	-0.3%	x	O=C(CC(=O)Nc1cc(Cl)ccc1Cl)Nc1cc(Cl)ccc1Cl
0.2%	u	-1.6%	x	Cc1c(CC(=O)NCCCC(=O)O)c(=O)oc2cc3c(cc12)CCC(C)(C)O3
u	4.5%	u	3.1	CC(=O)Nc1ccc(N=Cc2c(O)c(C(=O)Nc3ccccc3)cc3ccccc23)cc1

Shown with tabs: entries from further up
SMILES	Rango dissoc inh	miR-21 reporter	Rango-impB inh	GLA inh pH 4.5
Cc1cc(C(=O)Nc2ccc(F)cc2F)on1	42.8%	-8.1%	u	x
CCOc1cc(NC(=S)NCC2CCCO2)c(OCC)cc1NC(=O)c1ccccc1C (stereo unspecified)	-5.2%	1.5%	0.7%	u

Continued:
Rango dissoc inh	miR-21 reporter	Rango-impB inh	GLA inh pH 4.5	canonical_smiles
2.4%	-41.6%	-3.4%	2.4	O=C(Nc1ccc(-c2nnco2)cc1)c1ccccc1
-6.9%	-0.3%	u	-0.5	O=C(CCc1nnc(Cc2c[nH]c3ccccc23)o1)NC1CCCC1
-5.1%	12.5%	-3.0%	-4.2	COc1ccc(OCc2nn3c(Cn4cnc5ccccc54)nnc3s2)cc1
-1.6%	0.6%	-6.0%	5.4	COc1cccc(CN2CCN(Cc3ccc4c(c3)OCCO4)CC2CCO)c1 (stereo unspecified)
u	-0.3%	-2.6%	-3.3	C[C@H](NC(=O)c1nc[nH]c1C(=O)N[C@H](C)c1ccccc1)C(=O)OCc1ccccc1
-4.0%	7.0%	0.6%	-3.4	Cn1c(=O)cc(SCC(=O)NCCN2CCN(c3ccccc3F)CC2)c2cc(Cl)ccc21
u	-6.5%	u	x	N=c1c(C(=O)NCc2ccco2)cc2c(=O)n3ccccc3nc2n1C1CCCC1
u	1.4%	u	x	CCn1nc(NC(=O)C(C)C)c2cc3cccc(C)c3nc21
20.0%	-1.3%	-1.3%	6.1	CC(NC(=S)Nc1ccc(Cl)cc1)C(c1ccccc1)N1CCOCC1 (stereo unspecified)
u	-5.1%	u	1.1	Cc1c(C(=O)N2CCCC2)sc(NC(=O)c2cccs2)c1C#N
-11.9%	x	-0.2%	x	NS(=O)(=O)c1ccc(NC(=O)c2ccc(S(=O)(=O)N3CCCCC3)cc2)cc1
7.9%	3.9%	-1.6%	x	CCN(CC(=O)NCc1ccncc1)S(=O)(=O)c1cc(Cl)ccc1Cl
-10.9%	-1.1%	3.6%	8.1	Clc1nn2cnnc2c2ccccc12
-3.7%	x	-2.6%	x	COc1ccccc1CNC(=O)COC(=O)/C=C/c1ccc2c(c1)OCO2
-6.9%	0.1%	-1.9%	14.5	COCCn1c(SCC(=O)NCc2ccc3c(c2)OCO3)nc2ccccc2c1=O
-6.3%	-19.7%	4.9%	0.2	O=C(NCCCn1ccnc1)c1cc2ccccc2oc1=O
-13.8%	-8.7%	7.7%	-20.0	CCOc1ccc(NC(=O)CCC(=O)NNC(=O)c2ccco2)cc1
-1.6%	-11.3%	-2.3%	5.4	CCn1c(CNc2ccc(F)cc2)nnc1SCCN1CCCCC1
-2.7%	x	1.5%	x	COc1ccc2c(CC(=O)OCc3nc4ccsc4c(=O)[nH]3)coc2c1
2.2%	-3.2%	2.0%	x	OCCc1c[nH]c2cc(F)ccc12
19.3%	x	1.9%	x	CN1C[C@@H]2[C@@H]3C(=O)N(C)C(=O)[C@@H]3[C@](C)(C1=O)N2C(=O)c1ccc(Br)cc1
8.8%	0.5%	-1.0%	8.3	O=C(CSc1nnc(-c2ccc(Cl)cc2Cl)n1C1CCCCC1)NC1CCS(=O)(=O)C1 (stereo unspecified)
8.0%	-3.8%	-0.4%	x	CCc1nnc2n1N=C(c1ccc(Cl)cc1Cl)CS2
-23.8%	27.3%	u	0.8	CCOc1ccc(-n2c(O)c(/C=N/Nc3nc(C)cc(C)n3)c3ccccc3c2=O)cc1
-4.2%	-2.5%	-0.3%	u	CCCCN(C(=O)CSc1cc(C)c2ccc(OC)cc2n1)c1c(N)n(Cc2ccccc2)c(=O)[nH]c1=O

By substructure: the compounds so far with a COOH group
Rango dissoc inh	miR-21 reporter	Rango-impB inh	GLA inh pH 4.5	canonical_smiles
8.9%	23.1%	-1.1%	x	COc1ccc(C(=O)Nc2ccccc2C(=O)Nc2ccccc2C(=O)O)cc1
1.7%	1.1%	0.3%	x	CC(=O)c1cc2c(cc1NS(=O)(=O)c1cccc(C(=O)O)c1)OCO2
0.7%	0.9%	4.8%	x	COc1ccc(CCN2C(=O)N[C@@H](CCC(=O)O)C2=O)cc1
0.2%	u	-1.6%	x	Cc1c(CC(=O)NCCCC(=O)O)c(=O)oc2cc3c(cc12)CCC(C)(C)O3

Assay outcomes from PubChem.

This is a subset; count on the stated rates, not on these rows.
